Assay outcomes deposited in PubChem BioAssay by National Center for Advancing Translational Sciences (NCATS).
CtBP-E1A inh – inhibitors of CtBP/E1A interaction; 340,000 compounds, 0.49% hits; activity change, % (no concentration beside the values); AID 651724; AlphaScreen GST-E1A/His-CtBP binding, 1536-well; hits give low values; control for the full effect not named in the record; in the data active means activity change below about -65%; inconclusive means about -30% to -65%; inactive means above about -30%; further: on the % scale 0 is the no-effect control and ±100 the full control effect
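Steps: dispense buffer (Tris pH 8.0, NaCl 300 mM, TCEP 1 mM, BSA, Tween 20); add 5X protein mix (GST-E1A, His-CtBP, 125 nM each); pin 23 nL compound; 2 h at 37 °C, dark; add 5X beads (50 ug/mL); 1 h; read.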
TRPML1 agonist – human mucolipin-1 channel agonism; activation, % (concentration not given with the values); TRPML1-expressing cells, Ca2+ dye fluorescence, FDSS; host cell line not named in the record; reference of the full effect not given here; Q9GZU1; 410,000 compounds, 0.12% hits; in the data active = activation above about 50%; inconclusive = about 30% to 50%; inactive = below about 30%; further: 0% is about no effect; the text of the record puts the active cut at 80%
Target sequence (Q9GZU1 whole entry, looked up): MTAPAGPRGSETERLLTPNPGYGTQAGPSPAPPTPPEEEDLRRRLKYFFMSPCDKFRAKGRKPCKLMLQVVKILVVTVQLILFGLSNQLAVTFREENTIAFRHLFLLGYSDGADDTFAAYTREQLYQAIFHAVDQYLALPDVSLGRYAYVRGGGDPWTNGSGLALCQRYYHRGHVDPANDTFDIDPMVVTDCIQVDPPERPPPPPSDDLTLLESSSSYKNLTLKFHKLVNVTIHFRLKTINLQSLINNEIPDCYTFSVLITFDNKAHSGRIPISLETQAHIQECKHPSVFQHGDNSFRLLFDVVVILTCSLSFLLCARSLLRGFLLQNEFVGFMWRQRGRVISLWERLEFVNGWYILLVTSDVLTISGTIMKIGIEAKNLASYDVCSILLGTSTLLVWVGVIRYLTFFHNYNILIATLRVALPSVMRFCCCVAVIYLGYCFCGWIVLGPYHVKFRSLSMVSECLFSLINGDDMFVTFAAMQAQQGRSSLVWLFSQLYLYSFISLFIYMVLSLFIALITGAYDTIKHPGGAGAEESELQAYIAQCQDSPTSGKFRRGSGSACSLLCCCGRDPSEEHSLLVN
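In this qHTS format, compounds were pin-transferred onto Ca8-dye-loaded TRPML1-DL cells induced with Tet overnight, and intracellular Ca2+ fluorescence was recorded kinetically for 110 s after a 10 s baseline. A subsequent 4uM final 54-4 (EC80) addition followed by a second 110 s read served as the antagonist phase.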
Six1-Eya2 blk – Six1/Eya2 interaction inhibition. activity change, % (concentration not given with the values). AlphaScreen GST-Six1/His-Eya2 binding, biochemical; hits give low values; control for the full effect not named in the record. Q15475+O00167. 360,000 compounds, 0.56% hits; in the data active = activity change below about -65%; inconclusive = about -30% to -65%; inactive = above about -30%; further: on the % scale 0 is the no-effect control and ±100 the full control effect
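Homogeneous AlphaScreen proximity assay pairing GST-Six1 with His-tagged Eya2 (added as 5X mix: 250 nM and 500 nM) in 50 mM Tris pH 8.0, 300 mM NaCl, 1 mM TCEP. Glutathione donor and nickel acceptor beads; 1 h, 37 °C, dark.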
D2 potentiator – positive allosteric modulators of human D2 dopamine receptor; DiscoveRx D2 beta-arrestin cells, luminescence, 90 min; 100% = 57 uM dopamine signal; 360,000 compounds, 0.23% hits; potentiation, % (concentration not given with the values); AID 624464; P14416; active = potentiation of 50% or more; inconclusive = 30% to 50%; inactive = 30% or less;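 further: tested on top of an EC20 dose of dopamine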
Target sequence (P14416 whole entry, looked up): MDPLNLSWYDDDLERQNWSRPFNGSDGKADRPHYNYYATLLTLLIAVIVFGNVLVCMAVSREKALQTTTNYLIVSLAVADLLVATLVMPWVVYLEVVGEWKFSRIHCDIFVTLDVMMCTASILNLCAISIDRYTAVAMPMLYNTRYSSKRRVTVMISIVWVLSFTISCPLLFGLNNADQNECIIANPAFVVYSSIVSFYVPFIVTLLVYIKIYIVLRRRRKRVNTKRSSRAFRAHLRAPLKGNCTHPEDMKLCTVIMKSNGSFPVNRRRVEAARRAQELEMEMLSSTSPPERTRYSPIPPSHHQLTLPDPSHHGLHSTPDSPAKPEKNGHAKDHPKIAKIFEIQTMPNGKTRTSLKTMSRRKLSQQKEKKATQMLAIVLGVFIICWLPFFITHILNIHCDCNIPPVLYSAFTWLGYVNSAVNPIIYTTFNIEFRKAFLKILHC
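D2 cells co-treated with compound plus 50 nM dopamine (EC20) for 90 min at 37 deg C to detect potentiation. Beta-arrestin recruitment was read as enzyme-fragment luminescence after 1 h at ambient temperature. Full response was set by 57 uM dopamine.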
TRPV1 potentiator – human TRPV1 potentiation; Q8NER1; TRPV1-expressing cells, Fluo-8 calcium influx, capsaicin EC20 potentiation; host cell line not named in the record; control for the full effect not named in the record; potentiation, % at 8.33 µM; 320,000 compounds, 0.02% hits; AID 540277; active means potentiation above 80%; inconclusive means 30% to 80%; inactive means below 30%; further: 0% is about no effect
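Cells expressing TRPV1 were dye-loaded with Fluo-8 and read kinetically: 10 s baseline, 3 min after compound (agonist portion), then 2 min after EC20 capsaicin (allosteric enhancer portion). Calcium-bound dye fluorescence at 480/520 nm.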
TRPML1 inh – human mucolipin-1 channel inhibition; Q9GZU1; TRPML1-inducible cells, Ca2+ dye fluorescence, FDSS; hits give low values; inhibition of EC80 agonist-evoked calcium signal; activity change, negative = inhibition, % (test concentration not listed); 390,000 compounds, 0.02% hits; in the data active means activity change below about -50%; inconclusive means about -30% to -50%; inactive means above about -30%;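 further: stimulus is agonist 54-4 at its EC80 concentration; on the % scale 0 is the no-effect control and ±100 the full control effect; compound concentration not given in the record; the text of the record puts the active cut at -80%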
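Tet-induced TRPML1-DL cells loaded with Ca8 no-wash calcium dye were read kinetically on FDSS. Compound addition was followed by EC80 agonist 54-4 (4 uM final); inhibition was read over 110 s.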
Starred values were filed as active, the others as inactive; ? = inconclusive; . = not tested or not shown; & = joins results of further samples.

Sample of the layout, four compounds:
SMILES	CtBP-E1A inh	TRPML1 agonist	Six1-Eya2 blk	D2 potentiator	TRPV1 potentiator	TRPML1 inh
Cc1cccn2cc(CNc3ccccc3)nc12	-1	-0.7	-5	-7	8	6
C[C@H](CO)N1C[C@H](C)[C@@H](CN(C)S(=O)(=O)c2ccccc2)Oc2ccc(NC(=O)c3ccncc3)cc2C1=O	1	0.4	4	-2	.	-2
CCOc1ccccc1NC(=O)COC(=O)CN(C)S(=O)(=O)c1ccc(C)cc1	7	-0.8	-2	3	15	4
Cn1ncc(C(N)=O)c1NC(=S)NC(=O)c1ccc(Br)o1	.	1.8	-17	8	-5	18

This part in full, from the start:
SMILES	CtBP-E1A inh	TRPML1 agonist	Six1-Eya2 blk	D2 potentiator	TRPV1 potentiator	TRPML1 inh
Cc1cccn2cc(CNc3ccccc3)nc12	-1	-0.7	-5	-7	8	6
C[C@H](CO)N1C[C@H](C)[C@@H](CN(C)S(=O)(=O)c2ccccc2)Oc2ccc(NC(=O)c3ccncc3)cc2C1=O	1	0.4	4	-2	.	-2
CCOc1ccccc1NC(=O)COC(=O)CN(C)S(=O)(=O)c1ccc(C)cc1	7	-0.8	-2	3	15	4
Cn1ncc(C(N)=O)c1NC(=S)NC(=O)c1ccc(Br)o1	.	1.8	-17	8	-5	18
Cn1nc(-c2ccccc2)cc1NC(=O)CCCC(=O)O	0	-0.5	0	4	6	-2
O=C(Nc1ccc2c(c1)OCO2)c1cnc(Cl)c(Cl)c1	-3	1.5	0	-25	-12	-2
Cc1cc(OC(C)C(=O)NCc2ccncc2)c2c(C)cc(=O)oc2c1 (stereo not drawn)	5	0.2	3	0	-11	14
COC(=O)[C@]1(Cc2ccccc2)N[C@H](CN(C)C(=O)COc2ccccc2)[C@@H]2C(=O)N(C)C(=O)[C@@H]21	4	3.3	9	-2	.	17
CC(=O)Nc1ccc(C(=O)CSc2nnc(Cn3nnc4ccccc43)n2C)cc1	9	0.5	2	-7	-5	-1
CC(C)c1ccc(NC(=O)C2C3C=CC4(O3)C2C(=O)N(CCCN2CCCCC2)C4C(=O)NC2CCCCC2)cc1 (stereo not drawn)	5	0.4	-1	-12	-2	-14
CCC(=O)Nc1ccc(N2CCN(Cc3ccccc3)CC2)cc1	-5	-0.5	0	-4	-9	-3
CSc1nnc(NC(=O)c2nc(S(=O)(=O)Cc3ccc(C)cc3)ncc2Cl)s1	-4	1.0	-1	-1	16	-20
Cc1ccc(NC(=O)COC(=O)CCc2c[nH]c(=O)[nH]2)cc1	6	-0.4	23	-9	6	0
Nc1ncnc(Oc2ccccc2F)c1[N+](=O)[O-]	4	-0.1	5	-4	-10	-7
CC(C)(C)c1ccc2oc(=O)cc(-c3cccc(-c4ccc(C(F)(F)F)cc4)c3)c2c1	9	-0.1	7	-3	.	18
CCc1cc(=O)[nH]c(SCCc2ccccc2)n1	.	1.7	-2	-6	11	24
O=C(Nc1cccc(-c2cccc(Cl)c2)c1)C1CCN(Cc2ccccn2)CC1	13	0.9	2	-17	-11	-5
O=C(O)CC1Sc2ccccc2NC1=O (stereo not drawn)	-1	-0.1	-1	-19	3	2
O=C1C2Sc3[nH]c(=O)sc3C(c3ccccc3)C2C(=O)N1c1ccc(Cl)cc1 (stereo not drawn)	0	-0.7	10	-20	5	-14
O=C(Nc1nccs1)C1CC=CCC1 (stereo not drawn)	5	-0.8	-10	-1	3	7
Cc1nc(NC(=S)NC(=O)c2cccs2)sc1C(=O)N(C)C	25	-0.1	7	-17	5	5
O=c1cc(-c2ccc(O)c(O)c2)oc2ccc3ccccc3c12	0	-0.4	-2	-5	-11	-1
CC(=O)NCCc1nc2ccccc2[nH]1	7	-0.6	0	-7	2	-3
CCN1CC(CN(C)Cc2nc(Cc3ccccc3)no2)CC1=O (stereo not drawn)	7	-0.3	0	-3	2	-15
CC1(C)Cc2cccc(OCC(=O)Nc3ccccc3N3CCOCC3)c2O1	1	1.1	6	-19	-10	8
C#CCOc1ccc2c(C)cc(=O)oc2c1	4	-1.0	-1	-1	3	-12
CC/C(Cc1ccccc1)=N/NC(=O)CNC(=O)c1ccc(Cl)cc1Cl	1	-0.3	2	-4	-42	-12
COc1cc2c(cc1OC)CN(C(=O)CCCOc1ccc(Cl)cc1Cl)CC2	-21	-0.1	-15	-7	0	2
O=C(CC1CCOCC1)Nc1ccc(Cl)c(Cl)c1	-12	-0.3	-17	-5	1	1
Cc1ccc(NC(=O)c2cc(-c3ccccc3)nn2-c2ccccc2)cc1	5	0.8	20	-17	-14	36
O=C(CCCN1C(=O)CCC1=O)Nc1ccc(Cl)c(C(F)(F)F)c1	9	0.1	1	5	-47	-8
COc1ccc(NC(=O)CSc2ccc3nnc(CCNC(=O)c4ccccc4)n3n2)cc1OC	3	0.2	10	6	4	-9
Cc1noc(C(=O)NCc2ccccc2)c1Cl	-24	0.6	14	-8	-19	-10
Cc1ccc2nc(SCC(=O)N3CCCCCC3)nc(=O)n2c1	1	-0.2	9	-4	-5	8
CCCCN(C)CCC(=O)Nc1ccc2c(c1)CCC2	-8	1.2	1	-19	-19	-9
COc1ccccc1C(=O)Nc1ccc(C)c(S(=O)(=O)N2CCCCC2)c1	-17	2.6	-22	-13	-34	78
O=C(NC(=S)Nc1ccc(Br)cn1)c1cncc(Br)c1	-3	-0.2	1	1	-11	0
CCOC(=O)Cc1cc(=O)c2cc(C)ccc2[nH]1	.	1.9	6	?	15	-8
CC(=O)N1c2ccc(S(=O)(=O)N(C)CC(=O)NCc3ccccc3)cc2CC1C (stereo not drawn)	-6	-0.4	1	-12	1	-2
COC(=O)c1ccccc1C(=O)N1CCOCCN(C(=O)c2ccccc2C(=O)OC)CCOCC1	0	-0.6	10	-2	-4	-23
CCOC(=O)/C(C#N)=C\c1cccnc1	6	-0.2	0	-9	-3	-3
CCN(CC)C(=O)CSc1nc2cccnc2n1-c1ccccc1OC	2	-1.5	5	-2	5	-5
COc1ccc(C2N=C(c3ccccc3)NO2)cc1OC (stereo not drawn)	-6	0.4	10	1	-16	10
CCOC(=O)CSc1cc(CSc2ccccc2)nc(-c2ccccc2)n1	44	0.4	36	-16	3	-18
Cc1cccc(S(=O)(=O)N2CCC(CO)(Cc3ccccc3)CC2)c1	-13	-0.7	0	6	-19	8
CCc1ccc(C(=O)CSc2nnc(C)c(=O)[nH]2)cc1	6	-0.1	3	-7	2	-9
COc1ccc(-c2cc(=O)oc3cc(OCC(=O)NCCCn4ccnc4)ccc23)cc1	-12	.	-8	-19	10	.
Cc1nn(Cc2ccccc2)c(C)c1/C=N/NC(=O)c1cccnc1	.	0.3	-3	-4	-19	28
CCC(OC(=O)c1ccco1)C(=O)NCc1ccco1 (stereo not drawn)	5	0.1	-2	-8	4	-7
COc1ccccc1N1CCN(C2CCCN(C(=O)CCc3cnccn3)C2)CC1 (stereo not drawn)	-24	-1.0	-10	-28	6	1
CC(C)NC(=O)NC(=O)CSc1nncs1	4	-0.9	-6	-2	3	26
COc1ccc(NC(=O)Cn2nnc(C(=O)NCCc3ccccc3)c2N)cc1	.	0.2&-1.2	0	-2	-6	13&-8
CCCn1c(OC)nc2c1c(=O)n(C)c(=O)n2C	1	-0.6	-5	-7	7	-5
CN1C=CC=C/C1=C1\SC(=S)N(C2CCCCC2)C1=O	?	-0.8	?	-12	-14	-4
COc1cccc(OC)c1C(=O)Nc1ccc(C(=O)NCc2ccccc2)cc1	11	0.8	0	-4	7	2
COc1cccc(CNC(=O)CSCC(=O)Nc2cc(C)on2)c1	2	-0.6	2	-3	0	18
Cc1cc(SCc2cccc(C(F)(F)F)c2)nc(=O)[nH]1	.	1.0	6	-4	25	6
C[C@]12CCC3c4ccc(O)cc4CCC3C1CC/C2=N\N (stereo partly drawn)	-1	0.5	17	0	.	-13
O=C(COc1ccc(F)cc1)NCCCn1ccnc1	-2	0.2	6	1	26	-3
Cc1ccc(-n2ncc3c(=O)n(CC(N)=O)cnc32)cc1C	.	.	-14	22	1	.

Next records follow:
SMILES	CtBP-E1A inh	TRPML1 agonist	Six1-Eya2 blk	D2 potentiator	TRPV1 potentiator	TRPML1 inh
CC(C)CC(=O)N1CCN(S(=O)(=O)c2ccccc2)CC1	4	-0.4	-1	-13	-6	20
CC(NS(=O)(=O)c1ccc(CCC(=O)NCc2ccco2)cc1)c1ccccc1 (stereo not drawn)	3	0.6	4	1	-2	20
O=C(N/C(=C/c1cccnc1)C(=O)N1CCOCC1)c1ccccc1Cl	6	1.1	4	0	-11	-4
O=C(COC(=O)C1=COCCO1)Nc1cc(C(F)(F)F)ccc1Cl	2	-0.3	0	-3	.	9
CN(C)c1ccc(C2Nc3ccccc3C(=O)N2CCCN2CCOCC2)cc1 (stereo not drawn)	.	-0.6	0	-19	4	34
COc1ccc(CN2CCN(Cc3c[nH]c4ccccc34)CC2)c(OC)c1	-11	-0.2	-1	-29	.	8
Cn1c(N)c(C(=O)COC(=O)/C=C/c2cccc(Cl)c2)c(=O)n(C)c1=O	-2	0.0	-13	0	.	3
OCCC1CN(Cc2cccn2-c2cccnc2)CCN1C1CCCC1 (stereo not drawn)	-2	1.0	-2	-20	-4	-12
O=C(O)c1cc2c(=O)c3ccccc3oc2nc1C(F)(F)F	-4	0.5	-18	-1	17	-1
CCc1cc2c(=O)[nH]c(N3CCOCC3)nc2s1	0	-0.7	22	-16	17	-13
COc1ccccc1CN(C)CC(=O)Nc1ccc(Cl)cc1C(F)(F)F	24	2.7	27	-26	-8	3
COC(=O)c1sc(N)c(C(=O)OC)c1CSc1nc2sc3c(c2c(=O)n1C)CCC3	3	0.0	2	-14	-21	-16
O=C(Oc1ccc2c(c1)OCO2)c1ccc(Br)c(S(=O)(=O)N2CCOCC2)c1	3	2.5	-3	-7	-5	62
COCCCn1c2nc3ccccc3nc2c2c(=O)n(-c3ccccc3OC)cnc21	-5	-0.1	12	-6	4	-5
CC(C)(C)C(=O)Nc1ccc(N2CCN(S(C)(=O)=O)CC2)cc1	12	1.2	5	-6	-1	6
Cc1cc(NC(=O)C(C)SCC(=O)OCC(=O)N(C)c2ccccc2)no1 (stereo not drawn)	13	-0.4	5	-4	-11	-16
CC(C)NS(=O)(=O)c1ccc(CCC(=O)Nc2cc(Cl)ccc2Oc2ccccc2)cc1	-7	3.5	-9	-18	16	-16
CCOC(=O)c1cc(S(=O)(=O)N2CCOCC2)cn1C	.	-0.4	-7	-2	-2	-14
c1ccc2c(c1)CCN(c1nc3ccccc3n3cnnc13)C2	-2	-1.5	-18	-3	-14	-9
Cc1cccc(C(=O)OCC(=O)Nc2c(C)nn(-c3ccccc3)c2C)c1O	6	0.1	5	0	?	8
CCN1CCN(c2ccc(S(=O)(=O)N3CCOCC3)cc2NC(=O)c2ccc(Cl)cc2Cl)CC1	-2	-1.1	-8	-1	-2	-1
O=C(CCCCCNC(=O)N1CCn2c1nc1ccccc12)NCc1ccc(Cl)cc1	-5	1.0	-5	0	12	-7
Cc1cc2nn(-c3ccc(F)cc3)nc2cc1N	4	0.1	8	-9	3	-15

Compounds as they come. About 0.95% of those tested had a hit in this group.
